Screens as filed in PubChem BioAssay.
ALR inh – blocks human ALR sulfhydryl oxidase activity | P55789 | purified ALR, DTT oxidation, H2O2 HRP-luminol luminescence | inhibition, % (concentration not given with the values) | hit rate 3.8% among 290,000;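 active = mean and each replicate at 75% or more; inconclusive = only one of the two met; inactive = neither met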;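 also: stock transfer was 7.5 nL into about 7.5 µL; 0% = neutral wells and 100% = wells with inactivated enzyme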
Beta2AR agonist – agonists of human beta-2 adrenergic receptor inducing internalization. P07550. response, % (no concentration beside the values). Am2.2-beta2AR cells, FAP receptor internalization, flow cytometry; reference of the scale not given here. hit rate 0.43% among 340,000;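 active = response above a set limit, near 3 SD of response in nonfluorescent compounds, cut at about 42% in these data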;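 also: stock transfer was 100 nL into about 11 µL; a reference agonist was the positive control; negative values mostly stem from fluorescent compounds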
Target sequence (P07550 whole entry, looked up): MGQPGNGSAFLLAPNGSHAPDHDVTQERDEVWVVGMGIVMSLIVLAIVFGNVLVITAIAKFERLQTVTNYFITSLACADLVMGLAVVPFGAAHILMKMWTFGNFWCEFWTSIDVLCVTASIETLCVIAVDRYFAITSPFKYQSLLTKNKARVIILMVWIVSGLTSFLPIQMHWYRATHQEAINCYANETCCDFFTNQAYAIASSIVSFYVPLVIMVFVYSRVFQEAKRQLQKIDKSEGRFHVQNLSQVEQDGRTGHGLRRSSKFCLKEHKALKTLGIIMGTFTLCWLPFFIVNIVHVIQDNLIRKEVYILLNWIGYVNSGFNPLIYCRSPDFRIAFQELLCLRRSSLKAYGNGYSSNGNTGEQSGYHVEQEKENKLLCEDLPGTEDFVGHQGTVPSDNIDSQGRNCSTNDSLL
Ecoli growth – E. coli growth inhibition | Escherichia coli growth, OD600, 23 h; hits give low values | OD600 absorbance (concentration not given with the values) | hit rate 0.21% among 330,000 | AID 1053175;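 active = OD600 absorbance below the run mean of sample wells minus 3.6 SD, in any replicate, cut at about 0.56 in these data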;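 also: stock transfer was 300 nL into about 60 µL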
FGF22 binding – binders of recombinant human FGF22 by thermal shift. Q9HCT0. SYPRO orange fluorescence; percent of sucrose octasulfate shift, DMSO zero. calls only at 9.99 µM. hit rate 1.5% among 340,000;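 active = melting point raised past a set limit in the mean and every replicate; inconclusive = no clear call; three in four hits are not shown here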
Target sequence (Q9HCT0 whole entry, looked up): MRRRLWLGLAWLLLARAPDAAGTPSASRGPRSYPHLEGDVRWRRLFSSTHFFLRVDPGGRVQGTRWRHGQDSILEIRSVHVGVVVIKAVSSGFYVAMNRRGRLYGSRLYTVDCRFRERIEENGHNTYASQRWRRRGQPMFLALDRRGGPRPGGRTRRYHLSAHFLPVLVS
HNF4A DNA FP – change in binding of human HNF4 alpha to DNA; activity change, % at 10 µM; HNF4a-FITC DNA binding, fluorescence polarization, 1 h; P41235; hit rate 0.3% among 360,000; in the data active = activity change above about 30%, passing the limit was not always enough;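 also: controls were the assay level and a saturating level of protein; the project sought stronger binding though the title names inhibitors; some compounds called inactive have numbers as strong as hits; positive values seem to mean higher polarization but the record does not say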
rRNA inh HTS – inhibitors of bacterial rRNA selective over humanized ribosomes. E. coli WT GFP vs humanized-ribosome RFP mutants, fluorescence, 24 h; hits give low values; DMSO median 0, no signal -100. GFP signal change (wild-type ribosome), % (concentration not given with the values). hit rate 1.6% among 350,000. AID 720706;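 active = significant combined selectivity score with lowered wild-type GFP, culture density cut under 30%, mutant RFP and density less affected; inactive = any of these conditions unmet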; also: one replicate is shown; some compounds called inactive have numbers as strong as hits
UCH37 DUB inh – blocks the human deubiquitinase UCH37 | Q9Y5K5 | purified proteasome/UCH37, Ub-AMC cleavage fluorescence | inhibition, % (test concentration not listed) | hit rate 0.33% among 330,000;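 active = mean of two replicates above 20%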;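 also: 0% = compound-free wells with enzyme and 100% = wells lacking proteasome; stock transfer was 100 nL into about 20 µL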
Target sequence (Q9Y5K5 whole entry, looked up): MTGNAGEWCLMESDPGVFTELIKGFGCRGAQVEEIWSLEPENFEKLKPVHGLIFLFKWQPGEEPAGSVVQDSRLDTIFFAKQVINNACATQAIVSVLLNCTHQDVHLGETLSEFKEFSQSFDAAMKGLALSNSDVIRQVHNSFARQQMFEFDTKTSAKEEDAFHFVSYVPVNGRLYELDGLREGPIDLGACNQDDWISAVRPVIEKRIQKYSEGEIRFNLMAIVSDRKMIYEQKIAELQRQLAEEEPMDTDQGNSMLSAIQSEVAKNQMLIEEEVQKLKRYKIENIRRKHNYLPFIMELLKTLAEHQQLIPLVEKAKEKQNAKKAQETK
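Signal – fluorescence, ex 355 nm, em 460 nm · System – Proteasome-bound UCH37 · Input – 0.15 nM proteasome as dispensed · Timing – 30 min preincubation with enzyme, 25 min cleavage at room temperature · Read-out basis – percent inhibition of cleavage signal versus uninhibited and no-proteasome wells · Medium – Tris-HCl pH 7.4 with ATP-MgCl2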
rRNA inh HTS OD600 – further read-out of rRNA inh HTS, marked with its call; OD600 change, %; measured here: OD600 growth;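 optical density of the mix in the first replicate; 0 = DMSO median and -100 = no signal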
rRNA inh HTS RFP – also measured in rRNA inh HTS; calls as there; RFP signal change, %; measured here: RFP humanized mutant strains;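 first replicate; 0 = DMSO median and -100 = no signal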
* marks the source's active call; other numbers are inactive results; i = inactive; ? = inconclusive; . = no result given. Some of the compounds tested, so the mix of outcomes need not match the whole.

SMILES	ALR inh	Beta2AR agonist	Ecoli growth	FGF22 binding	HNF4A DNA FP	rRNA inh HTS	rRNA inh HTS OD600	rRNA inh HTS RFP	UCH37 DUB inh
COc1ccc(N2CC(C)Cn3c2nc2c3c(=O)[nH]c(=O)n2C)cc1 (configuration not stated)	2	5	0.75	.	0.8	.	.	.	2.2
COCCN(Cc1ccccc1)C(=O)c1cccc(S(=O)(=O)N2CCN(Cc3ccccc3)CC2)c1	.	.	.	i	2.6	-16	-31	-2.0	.
O=C(c1ccc(NC(=S)NCc2ccco2)cc1)N1CCCCC1	-2	4	0.66	i	-0.6	16	4	-3.5	1.0
CC(=O)Nc1ccc(N2CCN(Cc3ccccc3F)CC2)cc1	8	8	0.61	.	2.3	.	.	.	0.9
Cc1c([C@@H]2C[C@H]3CN(Cc4cccc(Cl)c4)C(=O)[C@]34CCCN24)cnn1C	-3	-2	0.66	i	21	12	2	4.3	1.1
Cc1nc2c(o1)CCc1ccccc1C2O (configuration not stated)	-22	-5	0.72	.	-2.4	.	.	.	-0.5
Cc1ccnc(NC2(C(F)(F)F)N=C3SCCN3C2=O)c1 (configuration not stated)	-6	4	0.71	i	-2.3	4	9	4.2	1.5
CC/C(Cc1ccccc1)=N/NC(=O)CCn1nnc2ccccc21	4	-8	.	i	2.3	-1	2	-2.3	.
CC(C(=O)N1CCc2ccccc21)N1CCN(S(=O)(=O)c2ccc3c(c2)OCCCO3)CC1 (configuration not stated)	.	-5	.	i	2.3	-4	-7	6.7	.
CC(=O)Nc1cc(-c2ccccc2)cn2c(-c3ccc(F)cc3)cnc12	.	.	.	i	-2.6	0	11	0.6	.
Cc1oc2c(CN3CCC(C)CC3)c(O)ccc2c(=O)c1-c1ccccc1	-41	-1	0.63	i	2.9	5	0	-1.8	i
Cc1nc(-c2ccccc2)c(Cc2ccccc2O)c(=O)[nH]1	7	-4	0.7	i	4.2	6	11	0.3	1.5
Cc1ccc(S(=O)(=O)Nc2ccccc2N=Cc2c(F)c(F)c(F)c(F)c2F)cc1	.	6	.	i	-1.8	-1	0	0.2	.
CCOC(=O)C1CCN(C(=O)Nc2ccc(Cl)cc2Cl)CC1	-4	1	0.67	i	-1.1	-5	2	-0.5	3.2
CCOc1ccc(CN(Cc2ccco2)S(=O)(=O)c2ccc(-n3cnnn3)c(OC)c2)cc1	-5	-3	0.7	.	-0.8	.	.	.	2.5
CCOc1ccccc1C1CC(=O)Nc2cc(OC)c(OC)cc21 (configuration not stated)	-3	1	0.66	i	1.3	6	11	0.9	3.1
COc1ccc2c(c1)CCc1c(C(=O)Nc3c(C)nn(Cc4ccccc4)c3C)noc1-2	-61	4	0.7	.	-0.1	.	.	.	-0.3
C=CCn1c(SCC(=O)N2CCN(c3ccc(F)cc3)CC2)nnc1-c1ccco1	.	-13	0.75	i	-0.2	-9	-8	1.0	0.5
Cc1nnc(SCCn2c(N3CC(C)CC(C)C3)nc3c2c(=O)n(C)c(=O)n3C)s1 (configuration not stated)	.	-12	0.65	.	-0.5	13	10	4.7	2.2
O=C(CCn1cnc2ccccc21)N/N=C/c1ccc(O)cc1	99*	-6	.	i	0.6	11	10	0.9	.

Arranged by formula weight (rising): 9 of the compounds above
SMILES	ALR inh	Beta2AR agonist	Ecoli growth	FGF22 binding	HNF4A DNA FP	rRNA inh HTS	rRNA inh HTS OD600	rRNA inh HTS RFP	UCH37 DUB inh
Cc1nc(-c2ccccc2)c(Cc2ccccc2O)c(=O)[nH]1	7	-4	0.7	i	4.2	6	11	0.3	1.5
O=C(CCn1cnc2ccccc21)N/N=C/c1ccc(O)cc1	99*	-6	.	i	0.6	11	10	0.9	.
CCOC(=O)C1CCN(C(=O)Nc2ccc(Cl)cc2Cl)CC1	-4	1	0.67	i	-1.1	-5	2	-0.5	3.2
Cc1oc2c(CN3CCC(C)CC3)c(O)ccc2c(=O)c1-c1ccccc1	-41	-1	0.63	i	2.9	5	0	-1.8	i
COc1ccc2c(c1)CCc1c(C(=O)Nc3c(C)nn(Cc4ccccc4)c3C)noc1-2	-61	4	0.7	.	-0.1	.	.	.	-0.3
Cc1ccc(S(=O)(=O)Nc2ccccc2N=Cc2c(F)c(F)c(F)c(F)c2F)cc1	.	6	.	i	-1.8	-1	0	0.2	.
Cc1nnc(SCCn2c(N3CC(C)CC(C)C3)nc3c2c(=O)n(C)c(=O)n3C)s1 (configuration not stated)	.	-12	0.65	.	-0.5	13	10	4.7	2.2
CCOc1ccc(CN(Cc2ccco2)S(=O)(=O)c2ccc(-n3cnnn3)c(OC)c2)cc1	-5	-3	0.7	.	-0.8	.	.	.	2.5
CC(C(=O)N1CCc2ccccc21)N1CCN(S(=O)(=O)c2ccc3c(c2)OCCCO3)CC1 (configuration not stated)	.	-5	.	i	2.3	-4	-7	6.7	.

Remaining list, next part
SMILES	ALR inh	Beta2AR agonist	Ecoli growth	FGF22 binding	HNF4A DNA FP	rRNA inh HTS	rRNA inh HTS OD600	rRNA inh HTS RFP	UCH37 DUB inh
COc1ccc(C)cc1S(=O)(=O)N1CCCC(C(=O)NC2CC2)C1 (configuration not stated)	7	-5	0.7	i	0.3	8	3	0.4	-1.9
Cc1cc(C(=O)Nc2ccccc2Cc2ccccc2)no1	-5	-12	0.69	i	1.3	-15	-19	-4.9	0.5
O=S(=O)(Nc1ccc2c(c1)nc1n2CCN(Cc2ccccc2)C1)c1ccc(Cl)cc1	-3	-1	0.66	.	12	.	.	.	-4.5
CC(C)n1nnnc1-c1cc(Cl)cc(Cl)c1	-7	0	0.65	.	-5.5	.	.	.	-0.3
CCOc1ccc(CCNC(=O)CCCn2nc(C)c3c(C)n(-c4ccccc4)nc3c2=O)cc1	-2	-6	0.67	i	-0.9	-9	10	0.1	0.0
CC(C)(C)OC(=O)C[C@@H]1C/C=C\C[C@@H](CC(=O)NCCO)C(=O)NCCOC1=O	-3	5	.	i	-1.3	1	-3	4.2	-1.3
CCN(CCn1cccn1)C(=O)c1cc(COc2cccc3cccnc23)on1	.	-5	0.72	.	2.1	-6	-1	1.4	-6.0
Cc1cc2c(cc1C)CSC(c1ccccc1O)SC2	32	5	0.71	.	0.0	.	.	.	3.2
Cc1ccc(C(C(=O)NC(C)(C)C)N(Cc2cccs2)C(=O)c2ccc3c(c2)OCCO3)cc1 (configuration not stated)	-4	3	0.7	i	2.0	6	16	-0.4	5.5
COC(=O)c1nnc(-c2ccccc2)c(-c2ccccc2)n1	1	1	0.73	.	-3.0	.	.	.	1.3
Cc1ccc(S(=O)(=O)N(CC(=O)NCc2ccccc2Cl)C(=O)N2CCN(C)CC2)cc1	-7	0	0.7	i	0.5	11	14	2.4	2.5
Cc1c(C(=O)NCc2cccs2)sc(=O)n1Cc1ccc(S(C)(=O)=O)cc1	.	.	.	i	3.6	10	6	-3.1	.
CN(C)/N=C/c1ccc(Sc2ccccc2[N+](=O)[O-])o1	92*	-2	.	i	0.5	1	2	0.3	.
COc1ccc(N(C(=O)c2ccc(Cl)cc2)C2=CC3CCC(C2)N3C)cc1 (configuration not stated)	-21	4	0.67	.	-1.4	.	.	.	42*
Cc1cccc(-c2nnc(SCC(=O)N3CCOCC3)o2)c1	2	0	0.6	i	-1.9	-23	-35	-7.5	0.4
COC(=O)CCN(C(=O)c1ccc(N2CCCCC2)c([N+](=O)[O-])c1)c1ccccn1	0	5	0.7	i	3.5	-15	-15	0.6	6.4
CCOC(=O)[C@]12CCC=C1N(CCC1=CCCCC1)C(=O)[C@H](CC(=O)N1CCOCC1)C2	.	.	.	i	3.2	18	23	1.5	.
CCC1=NN2C(=N)/C(=C\c3ccc(OCc4cc(=O)n5nc(CC)sc5n4)c(OC)c3)C(=O)N=C2S1	.	0	0.71	i	-42	1	3	0.2	-0.1
CCCCOC(=O)n1c(=O)oc2cc(S(=O)(=O)N3CCCCC3)ccc21	5	0	0.69	.	0.5	.	.	.	1.4
COCCCNc1nc2nonc2nc1NCCSC	.	8	0.67	i	-4.3	7	0	-1.3	5.4
Cc1ccc(COc2ccsc2C(=O)NNC(N)=S)cc1	-3	-5	0.68	i	-0.1	10	-1	-2.1	1.1
O=C(CCN1C(=O)/C(=C/c2ccccc2)SC1=S)NC1CCS(=O)(=O)C1 (configuration not stated)	-4	-11	0.7	i	-2.7	14	8	-3.5	10
O=C(c1ccc2c3c(cccc13)CC2)C1CCCN(Cc2ccccn2)C1 (configuration not stated)	.	0	0.65	i	3.4	-9	-5	9.8	-160
Cc1c(N=Cc2ccc(O)c(Br)c2)cccc1[N+](=O)[O-]	-1	4	0.64	i	1.6	10	11	2.9	14
CCOc1ccccc1NC(=O)CCc1nnc2ccc(NCc3ccco3)nn12	1	8	0.65	i	1.9	-4	-14	1.4	6.3
O/N=C\c1ccc(-c2ccccc2)o1	78*	-5	.	i	1.9	-1	-4	-7.0	.
NC(N)=N/N=C/c1ccc(OCc2ccc(Cl)cc2Cl)cc1	1	60*	.	.	5.5	.	.	.	.
Cc1cc(/C=N\O)c(C)n1-c1ccncc1	10	6	.	.	0.7	.	.	.	.
O=C1C2C3C=CC(CC3)C2C(=O)N1c1ccccc1[N+](=O)[O-] (configuration not stated)	-4	4	0.69	i	-0.4	-6	-8	-1.3	2.4
CSc1ccc(/C=N/N2CCN(Cc3ccccc3)CC2)cc1	3	4	.	i	-0.7	-5	-7	4.0	.
OC(CNCC1CCCO1)Cn1c2ccc(Cl)cc2c2cc(Cl)ccc21 (configuration not stated)	-13	33	0.55*	.	-2.5	.	.	.	5.8
COc1cccc(-c2ccc3ncnc(N(C)Cc4ccco4)c3c2)c1	-3	-4	0.65	i	6.2	-16	-9	-0.3	-1.2
COc1ccc(CCNC2CC(=O)N(CCc3ccc(OC)c(OC)c3)C2=O)cc1 (configuration not stated)	-50	1	0.68	.	5.8	.	.	.	1.7
O=[n+]1cc(-c2cc3ccccc3o2)n([O-])c2c1CCCC2	98*	-24	0.7	.	3.7	.	.	.	-28
Cn1nc(C(=O)NCc2ccccc2)c2c1-c1ccccc1S(=O)(=O)C2	-4	0	0.66	i	-0.6	-3	-14	-2.9	2.1
CN(C)S(=O)(=O)c1cc(S(=O)(=O)N(C)C)c(Cl)cc1N	-10	3	0.63	i	0.5	-1	-14	-2.1	1.1
Cc1cc[n+](CC[n+]2ccc(C)cc2)cc1	-6	1	0.67	i	0.0	12	17	0.1	-0.8
CN(C)CCN=Cc1c(O)n(Cc2ccccc2)c(=O)c2ccccc12	-1	4	0.66	i	-0.1	-24*	4.2*	-0.9*	6.4
O=[N+]([O-])c1cccc(-c2nnc(SCc3cccnc3)o2)c1	5	-11	0.65	i	0.1	10	-2	1.6	-3.0
NS(=O)(=O)c1ccc(NC(=O)COc2ccc(Cl)cc2)cc1	-6	-3	0.65	i	4.9	-2	1	-3.6	5.2
COc1ccc2cc3c(N)nn(C(=O)c4cccc(F)c4)c3nc2c1	-4	11	0.7	i	5.5	17	14	-0.6	-0.1
CCOC(=O)Cc1csc(NC(=O)NC2(C(F)(F)F)Oc3ccc(Cl)cc3O2)n1 (configuration not stated)	?	6	0.72	.	0.8	.	.	.	1.6
COc1cccc(NC(=O)NNS(=O)(=O)c2ccc(OC)cc2OC)c1	41	-3	0.67	i	-2.5	11	13	10	0.4
Cn1c(SCC(=O)Nc2nccs2)nnc1C12CC3CC(CC(C3)C1)C2	-20	-15	0.73	.	-1.6	.	.	.	3.3
Cc1c(C(=O)N2CCCC2)c(S(=O)(=O)Nc2ccccc2Cl)c(C)n1C	-8	0	0.7	i	2.6	2	12	-0.6	2.0
